miR-21 reporter = raises the signal of a miR-21 reporter; 340,000 tested, under 10 active; Potency, µM (titrated, usually from 38.3 µM), for the others: at the top dose reporter change, positive = more light; HeLa miR-21 FLuc reporter, luciferase, 48 h; AID 2288; active = well fitted rising curve with a large enough effect; inconclusive = small, poorly fitted or top-dose-only effect; inactive = no such curve, though single readings can be large or run the other way;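 further: % of control where 0% means no effect; miR-21 action dims this reporter so a rising signal means less miR-21 action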
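HeLa cells endogenously expressing miR-21, stably carrying CMV-driven firefly luciferase with a downstream miR-21 binding site, 2000 cells/well. Titrations up to approximately 40 uM, 48 hours; luciferase luminescence read.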
Rango complex inh = prevents formation of the Rango-importin beta complex. Q14974. Rango CFP/YFP FRET sensor + importin beta, 45 min. Potency, µM (top dose mostly 92.2 µM), without a hit: at the top dose inhibition of complex formation. actives 0.031% (n = 340,000); active = rising FRET ratio curve, often small or poorly fitted; inconclusive = mostly compound fluorescence or quenching in the first reads; inactive = flat curves in all reads;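 further: potency means the concentration at half of the fitted maximal effect; 0% = DMSO wells and 100% = buffer wells lacking importin beta; nearly all actives have a fitted effect of over 15% in size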
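Inhibition scored from the CFP 486 nm/YFP 530 nm FRET ratio 45 min after adding 0.125 microM importin beta to 50 nM Rango biosensor preincubated 5 min with compound (room temperature, PBS with DTT, Tween-20, BSA). No-importin wells as positive control.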
Rango dissoc inh = inhibitors of RanGTP-induced Rango-importin beta complex dissociation | Biochemical FRET Rango-importin beta, RanGTP-induced dissociation | actives 0.071% (n = 340,000) | Potency, µM (doses to about 46.1 µM), without a hit: at the top dose activity change, negative = inhibition; active means falling FRET ratio curve, often poorly fitted, with flat reads before Ran was added; inconclusive means other falling curves, or compound fluorescence or quenching; inactive means flat or rising ratio curve;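 further: potency means the concentration at half of the fitted maximal effect; % of control where 0% means no effect; nearly all actives have a fitted effect of over 45% in size; -100% = wells without RanGTP and RCC1; the record marks most hits as doubtful in a second field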
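Rango FRET biosensor (snurportin-1 IBB flanked by N-terminal EYFP and C-terminal CFP10) at 0.1 uM, with 0.25 uM importin beta in PBS, 1mM DTT, 0.02% Tween-20, 0.1% BSA. 0.6 uM Ran, 2mM GTP and 0.2 uM RCC1 were then added for 45 min at room temperature. Inhibition read as loss of FRET rise.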
GLA inh pH 4.5 = alpha-galactosidase A (human) inhibition, pH 4.5; P06280; activity change, negative = inhibition, % at 105 µM; purified enzyme, 4-MU-alpha-Gal fluorescence, pH 4.5; 230,000 tested, under 10 active; inconclusive = small, poorly fitted or top-dose-only inhibition, or a rising curve; inactive = flat fitted curve, though single readings scatter; no compound was filed as active;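 further: 0% = full activity with enzyme and -100% = basal without enzyme; dose as in the result columns while the protocol names 77 µM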
Target sequence (P06280 whole entry, looked up): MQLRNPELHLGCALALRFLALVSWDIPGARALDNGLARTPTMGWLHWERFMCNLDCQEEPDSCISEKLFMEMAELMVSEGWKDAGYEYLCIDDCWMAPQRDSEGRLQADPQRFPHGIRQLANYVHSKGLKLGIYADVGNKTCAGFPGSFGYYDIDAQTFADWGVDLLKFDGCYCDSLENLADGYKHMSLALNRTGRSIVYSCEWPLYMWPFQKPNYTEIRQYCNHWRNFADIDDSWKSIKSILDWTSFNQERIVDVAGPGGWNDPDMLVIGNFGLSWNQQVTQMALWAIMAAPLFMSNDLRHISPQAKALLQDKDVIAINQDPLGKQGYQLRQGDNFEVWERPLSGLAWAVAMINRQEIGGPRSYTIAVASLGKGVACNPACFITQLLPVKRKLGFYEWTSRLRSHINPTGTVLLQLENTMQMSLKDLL
* hit, by the source's call; u = inconclusive; x = not tested or not shown; & = joins results of further samples.

mol	GLA inh pH 4.5	miR-21 reporter	Rango dissoc inh	Rango complex inh
COCCCNC(=O)CN(c1cc(C(F)(F)F)ccc1Cl)S(C)(=O)=O	-6	0%	-16%	0.5%
O=C(/C=C/c1cccc([N+](=O)[O-])c1)N1CCN(C(=O)c2ccco2)CC1	6	-14%	-8%	0.5%
CCN(CC)c1ccc2cc(C=O)c(=O)oc2c1	-7	-7%	u	u
Nc1ncc(-c2ccc([N+](=O)[O-])cc2)cn1	3	-37%	20%	-3.7%
COc1ccc(NC(=O)CS(=O)CC(=O)Nc2cccnc2)cc1 (centres undefined)	x	0%	6%	-3.7%
C=CCn1c(SCC(=O)NC2CCCC2)nc2scc(-c3ccco3)c2c1=O	3	-2%	-11%	-2.4%
COc1cccc(N(CC(=O)NC2CCCC2)C(=O)CCCC(=O)Nc2ccccn2)c1	x	-5%	-5%	0.3%
COc1ccc(Oc2nc3c(c(=O)n(C)c(=O)n3C)n2Cc2ccccc2)cc1	0	2%	14%	0.9%
COc1cccc(-c2nc(CS(=O)(=O)CC(=O)N3CCN(c4ccccn4)CC3)c(C)o2)c1	5	-1%	6%	2.6%
Cc1noc(/C=C/N(C)C)c1S(=O)(=O)N1CCc2ccccc21	-8	9%	-8%	u
COC(=O)c1ccc(CN2CCCC(C(=O)c3cc(F)ccc3OC)C2)cc1 (centres undefined)	x	5%	5%	2.1%
CCN(Cc1ccccc1)C(=O)CS(=O)(=O)c1ccccc1	-1	-8%	-4%	0.2%
CCCCC1(C)Cc2ccccc2C(=S)N1 (centres undefined)	11	18%	-11%	2.0%
CCCCCc1ccnc(CC(=O)c2ccc(OC)cc2)c1	x	x	12%	u
COc1ccc(C(CC(=O)N2CCCC(C)C2)c2c(OC)cc(OC)c3ccc(=O)oc23)cc1 (centres undefined)	-3	3%	-8%	-1.0%
Cn1c(SCc2cccnc2)nc2c(c1=O)SCC2	4	-1%	29%	u
NS(=O)(=O)c1ccc(NC(=O)CCCCC(=O)Nc2ccc(S(N)(=O)=O)cc2)cc1	x	0%	6%	-0.9%
CC(Nc1ccccc1)C(=O)Nc1ccc(F)cc1 (centres undefined)	7	-10%	0%	0.5%
CC(=O)N1CCN(c2ccccc2NC(=O)c2ccc3ccccc3c2)CC1	x	-11%	0%	0.9%
CC1CCCCC1NC(=O)c1ccco1 (centres undefined)	x	x	21%	0.4%
CC(=C/C(=O)O)/C=C/c1ccco1	4	9%	-17%	2.3%
COc1ccccc1NC(=O)c1ccccc1C(=O)O	1	0%	-4%	0.2%
O=C(CCC(=O)c1ccc(Cl)s1)Nc1ncccc1O	x	x	-8%	-2.7%
O=C(O)CCC(=O)NNC(=O)CCC(=O)NCc1ccccc1	6	-6%	23%	2.6%
COC(=O)c1ccccc1NC(=O)Cn1c(SC)c(F)cnc1=O	-3	-4%	-21%	-0.8%
CS(=O)(=O)N(CC(=O)NCCSCc1ccccc1)c1ccccc1Br	x	3%	-19%	u
COc1ccc(CN(C)C(=O)c2oc3ccccc3c2CSC)cc1F	x	-15%	-10%	0.0%
O=C(c1ccc(F)cc1)C1CCN(Cc2cn[nH]c2-c2ccccc2)CC1	-19	3%	-5%	-2.5%
COC(=O)CN1C(=O)C(O)(CC(=O)c2cccc(Br)c2)c2ccccc21 (centres undefined)	1	-3%	-3%	-2.8%
Cc1ccc(-n2c(=O)c3sccc3n(CC(=O)NCC3CCCO3)c2=O)cc1F (centres undefined)	x	-1%	20%	-1.2%
Cc1c(Br)cc(C(=O)OC2CCN(C)CC2)c(C)c1C	0	-20%	1%	-0.2%
CC(OC(=O)Cn1nnc2ccccc21)C(=O)NC1CCCC1 (centres undefined)	x	-1%	8%	-0.4%
CN(C)Cc1nc2ccccc2c(=O)n1CC#N	8	0%	-2%	1.5%
O=C(COc1ccccc1)OCc1csc(Nc2ccccc2)n1	-13	-9%	-7%	-0.4%
O=C(COC(=O)c1cnc(Cl)c(Cl)c1)NC1CC1	x	x	-6%	-1.5%
C[C@H]1CN([C@@H](C)CO)C(=O)Cc2cc(NC(=O)CCC(F)(F)F)ccc2O[C@H]1CN(C)Cc1ccc(-c2ccccc2)cc1	x	x	24%	-6.2%
C=CCn1c(-c2cc3cccc(OC)c3o2)n[nH]c1=S	10	1%	0%	-2.5%
S=c1[nH]nc(-c2ccccc2)n1/N=C/c1cccc(Br)c1	x	-9%	-1%	1.8%
Cc1ccccc1N1CCN(CCCN2C(=O)CC(=C(c3ccccc3)c3ccccc3)C2=O)CC1	-7	-4%	-7%	1.7%
c1cncc(CNc2ncnc3ccc(-c4ccoc4)cc23)c1	x	x	26%	-5.4%

Of the compounds above, 3 have an NH in an aromatic ring:
mol	GLA inh pH 4.5	miR-21 reporter	Rango dissoc inh	Rango complex inh
O=C(c1ccc(F)cc1)C1CCN(Cc2cn[nH]c2-c2ccccc2)CC1	-19	3%	-5%	-2.5%
C=CCn1c(-c2cc3cccc(OC)c3o2)n[nH]c1=S	10	1%	0%	-2.5%
S=c1[nH]nc(-c2ccccc2)n1/N=C/c1cccc(Br)c1	x	-9%	-1%	1.8%

Further results.
mol	GLA inh pH 4.5	miR-21 reporter	Rango dissoc inh	Rango complex inh
Cc1[nH]ccc(=O)c1OCc1ccc(Cl)cc1	5	-12%	2%	4.0%
O=C(CCc1nnc(C2CCCCC2)o1)N1CCN(c2ccccc2F)CC1	2	-59%	-19%	0.7%
COC(=O)c1cc(NC(=O)c2ccc(Cn3cc(Cl)cn3)o2)cc(C(=O)OC)c1	0	3%	-10%	2.0%
O=C1[C@H]2CC3C=CC2(O3)[C@@H]2OCCCN12 (some centres undefined)	x	x	2%	2.4%
COc1ccccc1N(C(=O)c1snc(C(N)=O)c1N)C(C(=O)NCCC(C)C)c1ccco1 (centres undefined)	9	-2%	u	u
COc1ccccc1-c1cc(C(=O)N/N=C/c2ccc(C)s2)c2ccccc2n1	-15	14%	6%	0.0%
Cc1cc2c(SCC(=O)Nc3ccccc3O)ncnc2s1	x	x	-6%	0.4%
O=C1CNC(=S)N1Cc1ccccc1	0	-2%	2%	7.5%
CCCCCCCN1CCC(=O)N([C@H](CO)c2ccccc2)CC1	x	4%	4%	2.6%
CCOc1ccc(S(=O)(=O)NCCC(=O)NCC(c2cccs2)N2CCOCC2)cc1 (centres undefined)	x	0%	3%	0.6%
O=C1CC(c2ccc3c(c2)OCO3)c2cc3c(cc2N1)OCO3 (centres undefined)	5	-7%	4%	4.0%
CC1CCCN(C(=O)Nc2cccc(NC(=O)N3CCCC(C)C3C)c2)C1C (centres undefined)	-23	-9%	-5%	-1.5%
CC(OC(=O)Cc1ccsc1)C(=O)Nc1ccc(C(N)=O)cc1 (centres undefined)	x	x	13%	0.9%
Cc1ccc(Cn2c(=N)n(CC(=O)c3ccccc3)c3ccccc32)cc1	2	8%	2%	-0.4%
COC(=O)c1sccc1NC(=O)c1c(F)c(F)c(F)c(F)c1F	x	x	-11%	6.8%
Cc1nnc(NC(=O)/C=C/c2ccco2)s1	-1	-14%	-20%	-1.8%
CCC(=O)Nc1cc(ON=C(C)C)cc([N+](=O)[O-])c1	3	-10%	14%	2.5%
COc1ccc(CN2CCN(S(=O)(=O)c3ccc(NC(C)=O)cc3)CC2)c(OC)c1OC	4	1%&-2%	0%	-2.8%
Clc1ccc(-n2cnnn2)cc1	3	-4%	2%	-2.8%
COc1ccc(S(=O)(=O)N2CCCC2C(=O)Nc2ccc(O)cc2)cc1 (centres undefined)	3	-6%	1%	-3.3%
CCOc1ccc(C(=O)NC2CCN(S(C)(=O)=O)CC2)cc1	-4	-10%	-8%	-0.5%
CC1CCCCN1C(=O)C1COc2ccccc2O1 (centres undefined)	x	-4%	-8%	-0.5%
Cc1nc(NC(=O)COC(=O)c2cc3c(s2)CCC(C)C3)c(Cl)cc1Cl (centres undefined)	6	-2%	10%	-0.4%
COc1ccc2oc(C(=O)OCC(=O)NCc3ccco3)c(C)c2c1	x	x	-4%	-2.8%
Cc1cc(N=Nc2ccccc2)cc(C)c1NC(=O)C(F)(F)F	x	x	-8%	0.8%
O=C(CSc1nnc([C@@H]2CCCN2)o1)c1ccc(Cl)cc1	9	-31%	1%	-2.7%
COc1ccc(OCCC(=O)N2CCN(C)CC2)cc1	x	-3%	-2%	-1.6%
O=c1oc2cc(OCc3nn[nH]n3)ccc2c2c1CCCC2	5	1%	-10%	-5.5%
CCCCN(CCCC)c1nn[nH]n1	x	x	-22%	-1.6%
CC1(C)N=C(c2cccc(F)c2)C(=O)N1	1	-7%	-7%	2.4%
CCC(CO)NC(=O)c1cc2c(s1)CCC2 (centres undefined)	2	-10%	6%	-0.3%
O=C(Nc1nc2c(Br)cc(Br)cc2c(=O)s1)C1CCC1	6	8%	-21%	5.7%
Cn1c(=O)c2[nH]c(NCC3CCCO3)nc2n(-c2ccccc2)c1=O (centres undefined)	5	8%	-13%	4.1%
Cc1cc(OCc2n[nH]c(=S)n2-c2ccccc2)ccc1Cl	x	0%	1%	-1.5%
Cc1c(OCC(=O)NCCN2CCOCC2)ccc2c3c(c(=O)oc12)CCC3	x	-6%	-17%	0.5%
COC(=O)C1=C(C(=O)OC)C(c2cc(Br)ccc2O)c2sc(=O)[nH]c2S1 (centres undefined)	-1	-3%	-18%	-5.8%
CCOC(=O)c1sc(NC(=O)CCCn2nc([N+](=O)[O-])cc2C)c(C(=O)OCC)c1C	-1	-11%	6%	0.1%
COc1ccc(CCNC(=O)C/C(C)=N/NC(=O)c2ccc([N+](=O)[O-])cc2Cl)cc1OC	x	0%	6%	-0.5%
CC(NC(=O)c1ccc(F)cc1)c1ccccc1 (centres undefined)	3	-5%	14%	0.2%
CC(C)(C)c1ccc(S(=O)(=O)N2CCC(c3nc4ccc(Cl)cc4[nH]3)CC2)cc1	-16	14%	-4%	-0.8%
O=C1C=CC(=O)N1c1ccc(OC(F)F)cc1	7	29%	-1%	0.0%
CCCCc1cc(=O)oc2cc(C)cc(OC(C)C(=O)NC(Cc3c[nH]c4ccc(O)cc34)C(=O)O)c12 (centres undefined)	x	1%	17%	-0.5%
Cc1[nH]c2ccccc2c1/C=C/C(=O)c1ccccc1	-19	-19%	u	u
CCCn1c(=S)[nH]c2cc(C(=O)N3CCN(c4ccccc4OC)CC3)ccc2c1=O	8	-1%	15%	0.0%
Cc1ccc(N(CC(=O)NC2CCCC2)C(=O)CNC(=O)c2cccs2)c(C)c1	x	-1%	-7%	-0.7%
CC(=O)NS(=O)(=O)c1ccc(NC(=O)CCC(=O)Oc2ccc(C)cc2)cc1	x	0%	1%	-0.2%
O=C(CC1C(=O)N(c2ccccc2)C(=O)N1Cc1ccco1)Nc1ccccc1 (centres undefined)	1	0%	1%	0.3%
CCCCCCn1cc(C(=O)O)c(=O)c2cc(F)c(N3CCN(C)CC3)cc21	x	0%	10%	3.7%
COc1ccc(-c2cc3c(=O)n(CC(=O)NC4CCN(Cc5ccccc5)CC4)ncn3n2)cc1	0	-7%	-2%	5.2%
Cc1ccc(S(=O)(=O)N(C)CC(=O)NNC(=O)CCNS(=O)(=O)c2cccc(C)c2)cc1	x	x	0%	-0.2%

Some of the compounds tested; count on the stated rates, not on these rows.
